Rce1 inh: yeast Ras-converting enzyme inhibition; Q03530; yeast membranes, quenched prenylated peptide cleavage fluorescence; calls only; actives 0.27% (n = 290,000); AID 2563;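 active = fall in fluorescence gain of 50% or more versus controls, with final raw signal at or below 3038400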;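 also: plate controls were neutral control wells for no effect and wells lacking membranes for full effect; tested at 10 µM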
Target sequence (Q03530 whole entry, looked up): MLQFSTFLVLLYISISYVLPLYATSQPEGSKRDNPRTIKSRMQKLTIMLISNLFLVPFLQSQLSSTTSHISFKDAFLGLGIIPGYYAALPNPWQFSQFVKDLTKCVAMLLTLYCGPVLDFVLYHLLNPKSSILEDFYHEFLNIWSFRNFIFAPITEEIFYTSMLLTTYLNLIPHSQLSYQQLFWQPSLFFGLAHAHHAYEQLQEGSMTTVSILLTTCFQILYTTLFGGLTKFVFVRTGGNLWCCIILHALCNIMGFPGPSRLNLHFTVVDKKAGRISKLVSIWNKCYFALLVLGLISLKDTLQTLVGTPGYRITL
CSC inhib: blocks cancer stem cells; cancer stem cell-like cells viability, luminescence; inhibition, % at 7.5 µM; actives 1.1% (n = 300,000); AID 2717;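 active = mean at 75% or more and at least half the replicates too; tested in HMLE shEcad cells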;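 also: 0% = median of negative and 100% = median of positive control wells; the first replicate is given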
UUG fidelity: modulators of start codon recognition fidelity in yeast; S. cerevisiae UUG-firefly luciferase reporter, luminescence/redox ratio; activity score, % at 18.7 µM; actives 0.13% (n = 350,000); AID 602363;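 active = replicate mean at a twofold rise or more, about +100% in these data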;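 also: firefly luciferase made from a UUG start codon reports start codon fidelity; reporter light over untreated wells divided by growth signal over untreated wells; some hits fall short of that in this replicate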
PABP polyA inh: PABP-poly(A) binding inhibition; P11940; actives 1% (n = 290,000); inhibition, % at 35 µM; PABP-poly(A) RNA binding, fluorescence polarization;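 active = 50% or more with normal probe brightness, or confirmed in later tests; about a fifth of its hits are not listed in these tables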;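 also: calls also rest on retests at 20 µM and on dose response follow-up; controls were probe without protein and protein plus probe with vehicle; some compounds called inactive have numbers as strong as hits; many hits fall short of the cut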
eIF4H inh: inhibitors of RNA binding by human eIF4H; eIF4H fluorescence polarization binding assay; Q15056; actives 0.94% (n = 290,000); inhibition, % at 35 µM;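 active = 50% or more with normal probe brightness, or confirmed in later tests; about a fifth of its hits are not listed in these tables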;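 also: calls also rest on retests at 20 µM and on dose response follow-up; 0% = protein and probe with vehicle and 100% = probe without protein; strong numbers were not always called active; many hits fall short of the cut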
HIV Env fusion: blocks HIV Env-driven cell-cell fusion. HeLa-JRFL Env/CEM21 cell fusion, luciferase. inhibition, % at 12.3 µM. actives 1.1% (n = 360,000). AID 651610;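 active = mean replicate inhibition score of at least 50 and every replicate individually at or above 50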;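 also: 0% = plate neutral controls and 100% = maraviroc near 300 nM; one replicate is shown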
MT1-MMP act inh: inhibitors of human MT1-MMP activation. HT1080 RFP-PRO-GFP cells, GFP/RFP ratio fluorescence, overnight; percent of plate control window, DMSO zero. P50281. GFP/RFP ratio change, % at 20 µM. actives 0.061% (n = 360,000). AID 651647;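 active = GFP/RFP ratio change of at least 30% with cell ATP level not reduced by more than half and red fluorescence within 50% of control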; also: strong numbers were not always called active
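Material: RFP-PRO-GFP reporter HT1080 cells. Dosing: single-point 20 µM compound, 1% DMSO. Controls: DMSO and RFP-L50D-GFP cell wells. Timing: cells overnight before dosing, compound overnight, 37 °C, 5% CO2. Measure: GFP/RFP fluorescence ratio.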
eIF4H inh retest: further read-out of eIF4H inh, marked with its call; inhibition, %; compound at 20 µM; confirmation average;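 mean of two retest wells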
PABP polyA inh retest: recorded beside PABP polyA inh, whose call it bears; inhibition, %; compound at 20 µM; confirmation repeats;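 mean of two retest wells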
MT1-MMP act inh RFP: further read-out of MT1-MMP act inh, marked with its call; RFP signal change, %; measured here: RFP expression control read;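 0 = vehicle wells; hits needed this value within 50% of zero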
* = called active by the depositor; i = inactive; . = not tested or not shown; + = active, no number; & = joins results of further samples.

SMILES	Rce1 inh	CSC inhib	UUG fidelity	PABP polyA inh	eIF4H inh	HIV Env fusion	MT1-MMP act inh	MT1-MMP act inh RFP	others
CCOC(=O)c1nn(-c2ccc(Br)cc2)cc1C(=O)c1cccc2ccccc12	i	-10.7	-20.5	-5.1	-15.5	-1.9	9.8	-3.2
CN(C)S(=O)(=O)n1cnc([C@@H]2[C@H]3C(=O)OC[C@@H]3C[C@@]23N=CN(Cc2ccccc2)C3=O)c1	.	-1.4	-6.3	.	.	6.4	-0.8	1.3
O=C(CCS(=O)(=O)Cc1ccccc1)NCC1CCCO1 (stereo not drawn)	i	-5.7	-20.7	-17.6	7.2	.	-1.8	-0.7
Cc1ccc(S(=O)(=O)NC(C)CCc2ccccc2)cc1C(N)=O (stereo not drawn)	i	-2.9	-7.4	14.5	-3.2	7.9	3.2	-15.0
O=S(=O)(Cc1cc(NCc2ccccc2)nc(-c2ccccn2)n1)c1ccccc1	i	9.5	.	-8.4	-2.2	-37.9	4.8	2.5
Cc1oc2nc(SCC(=O)NCCCO)nc(N)c2c1C	i	19.7	-5.2	18.6	-0.4	-17.4	-2.7	-2.9
CN(C)/C=N/NC(=O)c1ccc(Cl)cc1	i	-5.3	2.6	0.0	0.6	-0.2	0.8	2.6
Cc1ccc(-c2nnn(CC(=O)N3CCCCC3)n2)o1	i	1.5	.	-2.3	-5.4	5.3	0.1	0.5
COCCNC(=O)C1CCCN(S(=O)(=O)c2ccc3c(c2)CC(C)N3C(=O)C2CC2)C1 (stereo not drawn)	i	-5.4	-23.5	-3.1	-8.4	14.8	-0.3	1.8
CCCOc1ccc(C2=CSC3=NCCN23)cc1Cl	i	48.0	-5.8	-0.5	-4.7	-14.3	-0.8	-2.1
CC(C)(C)NC(=O)NC(=O)COC(=O)CCC1CCCC1	i	2.3	9.0	-4.0	-5.0	5.6	-3.4	-3.9
COc1cccc(-n2ccnc2SCC(=O)NCc2ccccc2)c1	i	-8.7	-9.3	1.3	5.0	.	2.8	0.7
CCCCn1c(-c2ccccc2C)nc2cc3[nH]c(=O)c(C(C)C)nc3cc21	i	29.7	-17.1	29.8	30.1	8.9	-9.3	-6.2
O=C(NNc1ncc(C(F)(F)F)cc1Cl)c1ccc(Cl)c(Cl)c1	i	5.5	-18.1	8.3	-11.0	3.1	1.5	3.0
CCCCCCc1c(O)c2ccccc2[nH]c1=O	i	-0.1	-13.3	-4.4	-14.3	-0.5	-0.6	1.0
CCN1C(=O)[C@H]2[C@@H](c3ccc(SC4CCCCC4)c(OC)c3)N[C@@](Cc3ccccc3)(C(=O)OC)[C@H]2C1=O	i	-27.8	-15.4	.	.	-16.3	-1.2	-8.5
CCOC(=O)c1ccc(OCC2NCCc3cc(OC)c(OC)cc32)cc1 (stereo not drawn)	i	4.2	-10.7	-4.7	8.3	-16.9	-0.3	4.8
CCOC(=O)c1cc2cc([N+](=O)[O-])ccc2oc1=O	i	2.3	-18.9	-8.2	-7.7	12.0	-5.4	1.0
CCN1C(=O)CS/C1=N\S(=O)(=O)c1ccccc1	i	-1.9	-9.8	-5.0	-1.0	3.2	-14.8	7.6
O=C(c1ccc(C(F)(F)F)cc1)C1CCCN(C(=O)CCn2cncn2)C1 (stereo not drawn)	i	-5.6	-23.8	2.7	-2.0	3.3	-0.9	0.1
CCCCCc1cc(=O)oc2c(C(CCN(CC)CC)c3ccc(N(C)C)cc3)c(OC)cc(OC)c12 (stereo not drawn)	i	26.9	-18.8	-8.5	5.3	-5.6	-0.6	-6.7
CC(=O)Nc1ccc2c(CSc3nnc(N)s3)cc(=O)oc2c1	i	-14.6	.	10.0	-16.9	-1.7	7.3	1.0
O=C(NCc1cccnc1)NC1(C(F)(F)F)Oc2ccc(Cl)cc2O1 (stereo not drawn)	i	51.8	5.2	11.8	3.0	.	5.2	-6.1
CC(C)(C)NC(=O)NC(=O)CN1C(=O)NC(c2ccccc2)(c2ccccc2)C1=O	i	28.5	-4.5	7.1	-9.7	-3.2	2.3	0.0
CC(C)CNC(=S)NNC(=O)c1csc2c1CCCC2	i	.	-22.1	-3.0	6.0	.	1.9	-0.7
O=C(OCCOc1cccc(Cl)c1)C1CCN(S(=O)(=O)c2ccccc2)CC1	i	5.0	-10.3	-0.7	-11.6	-20.7	1.2	4.8
Cc1ccnc(NC(=O)c2ccc(C(=O)c3ccccc3)cc2)c1	i	28.6	-56.0	.	.	4.7	0.1	-1.8
Cc1ccc(S(=O)(=O)NC(=O)COc2ccccc2C)c(C)c1	i	-2.9	-10.0	1.8	-15.6	-11.1	1.9	3.2
O=C(Nc1ccccc1)C1CCCCN1S(=O)(=O)c1ccccc1 (stereo not drawn)	i	-5.5	-5.9	2.9	-1.7	19.7	1.6	0.0
CCCOC1CCCN(C(=O)c2cc(COc3ccc(F)c(F)c3)on2)C1 (stereo not drawn)	i	3.1	-12.0	4.6	-8.6	-51.9	3.9	2.7
CCNS(=O)(=O)c1ccc(CCC(=O)NCc2ccc3c(c2)OCO3)cc1	i	-9.6	-18.9	-8.2	-0.5	1.1	-1.1	0.3
O=C(Nc1ccc(F)cc1)c1nc[nH]c1C(=O)O	i	-15.5	-13.3	5.7	9.5	20.0	1.6	4.6
CC(C)CCC(C(=O)O)C(C)CC(=O)NNC(=O)c1ccco1 (stereo not drawn)	i	1.7&-4.3	-6.8&-6.6	10.1&7.6	2.2&3.6	-19.3&3.2	-2.6&-0.5	-0.5&0.9
Brc1nc(Br)n(Cc2ccccc2)n1	i	-7.8	-9.8	-1.8	-6.9	8.0	-1.2	1.1
CCN1CNC(=S)N(c2cccc(C)c2C)C1	i	.	-12.4	-5.9	-5.1	-6.8	1.4	2.7
O=C(NC[C@@H]1CCCO1)c1cccc2c1C(=O)c1ccc(Cl)cc1S2(=O)=O	.	-7.7	-13.6	.	.	10.9	1.1	3.1
CN1CCCC1CCNC1C2CC3CC(C2)CC1C3 (stereo not drawn)	i	8.8	-1.3	24.0	-5.3	.	13.1	6.9
CC(C)CC(=O)Nc1cc(C(F)(F)F)ccc1N1CCOCC1	i	-7.2	.	4.6	4.0	-43.1	-0.5	1.8
CCCCn1c(N)c(Sc2ccccc2)c(=O)[nH]c1=O	i	.	5.7	-2.8	-12.9	-5.7	3.4	4.1
CC(=O)OCC(=O)c1c[nH]c2ccccc12	i	-1.9	-12.2	13.4	13.0	.	-0.4	2.9
N=C(N1CCCc2ccccc21)N1CCCc2ccccc21	.	.	0.6	.	.	6.8	-1.5	4.7
O=c1c(-c2ccc(Cl)cc2)c[nH]n1-c1ccccc1	i	14.7	-15.6	1.2	-2.7	-13.7	0.0	-4.5
COCCCn1c(N)c(-c2nc3ccccc3n2C)c2nc3ccccc3nc21	i	0.3	-12.5	-0.6	3.0	-1.5	-34.3	-2.8
CC1CC(C)CN(c2nc(N(C)c3ccccc3)nc(N)c2[N+](=O)[O-])C1 (stereo not drawn)	i	10.4	.	-4.7	-3.8	-10.7	-0.4	-14.2
COc1ccc(S(=O)(=O)N2CCC(C(=O)NCCC(=O)Nc3ccc(Cl)cc3)CC2)cc1	i	-7.8	-13.8	1.9	-8.8	21.1	-0.6	-2.5
CCN(CC)S(=O)(=O)c1ccc(OC)c(NC(=O)c2cc3c(=O)n4ccccc4nc3s2)c1	i	-3.5	.	-27.1	-10.6	-1.5	3.8	1.8
COC(=O)CSc1nc(C)c2c(n1)CCCC2	i	-0.7	.	-6.2	-3.8	0.6	2.2	0.7
CCOc1ccc(N/C=C/C(=O)c2ccc(C)cc2)c([N+](=O)[O-])c1	i	6.6	.	-1.9	20.4	.	7.9	7.5
CCCc1cc2c(=O)c(-c3cscn3)c(C(=O)OCC)oc2cc1O	i	-12.0	0.6	2.4	0.2	-4.7	-0.1	-0.7
Cn1cccc1C(=O)N/N=C/c1c(Cl)cccc1Cl	i	0.8	-11.6	-6.0	2.3	-47.3	-3.0	-2.0
CC(=O)NC1=NN(C(C)=O)C(C)(c2ccc3ccccc3c2)S1 (stereo not drawn)	i	-8.7	.	7.2	-3.1	13.5	-6.5	0.1
Cc1cc(=O)n2[nH]c(SCc3ccccc3Cl)nc2n1	i	-3.7	-9.9	3.3	-3.6	3.1	4.2	3.1
Cc1nn(-c2ccccc2)c2nc(N)c(C(N)=O)cc12	+	.	2.1	-10.7	-6.5	-3.5	4.1	5.0
Clc1ccccc1CN1CCSCC1	i	-11.2	-4.4	25.1	-1.3	9.8	-4.1	3.0
Cn1c(=O)oc2cc(S(=O)(=O)Nc3ccc4c(c3)OCO4)ccc21	i	-1.8	-18.6	35.4	30.2	19.7	-6.2	3.0
O=C(NC(=S)Nc1cccc2c(O)cccc12)c1ccccc1[N+](=O)[O-]	i	2.8	-3.0	34.0*	74.6*	.	5.2	-2.2	eIF4H inh retest=99.7*;PABP polyA inh retest=76.4*
COc1cc(NC(=O)c2[nH]c(C)c(C(C)=O)c2C)cc(OC)c1OC	i	7.7	-8.3	5.7	-2.8	-3.1	11.3	4.0
O=C(O)CSc1nnnn1C1CCCCC1	i	-1.3	.	11.4	-3.9	-5.8	0.0	0.5
COc1ccc(C(C)(O)c2nc(-c3cnc4ccccc4c3)cs2)cc1 (stereo not drawn)	.	.	-6.0	.	.	1.4	-4.7	-13.7
Cc1noc(C)c1CSc1nc2sc(C)c(C)c2c(=O)n1C1CCCC1	i	52.3	-11.1	-4.6	-10.5	18.9	-1.3	-4.0

Ordered by molar mass (falling): some entries from above.
SMILES	Rce1 inh	CSC inhib	UUG fidelity	PABP polyA inh	eIF4H inh	HIV Env fusion	MT1-MMP act inh	MT1-MMP act inh RFP	others
CCN(CC)S(=O)(=O)c1ccc(OC)c(NC(=O)c2cc3c(=O)n4ccccc4nc3s2)c1	i	-3.5	.	-27.1	-10.6	-1.5	3.8	1.8
CCCc1cc2c(=O)c(-c3cscn3)c(C(=O)OCC)oc2cc1O	i	-12.0	0.6	2.4	0.2	-4.7	-0.1	-0.7
Cn1c(=O)oc2cc(S(=O)(=O)Nc3ccc4c(c3)OCO4)ccc21	i	-1.8	-18.6	35.4	30.2	19.7	-6.2	3.0
Cn1cccc1C(=O)N/N=C/c1c(Cl)cccc1Cl	i	0.8	-11.6	-6.0	2.3	-47.3	-3.0	-2.0

(continued)
SMILES	Rce1 inh	CSC inhib	UUG fidelity	PABP polyA inh	eIF4H inh	HIV Env fusion	MT1-MMP act inh	MT1-MMP act inh RFP	others
O=C(O)C1CC(=O)N(c2ccc(F)c(F)c2)C1 (stereo not drawn)	i	-11.3	13.0	6.2	-16.5	.	0.0	3.8
c1ccc(COC2CCCN(Cc3nc(-c4cnccn4)no3)C2)cc1 (stereo not drawn)	i	-0.2	-12.1	-1.0	-2.0	2.2	.	.
COc1ccc(-c2csc3nc(C(C)C)oc(=O)c23)cc1OC	i	-7.4	-3.2	6.8	0.6	-11.7	4.8	5.4
COc1ccc(CCN=C(N)NS(=O)(=O)c2ccc(OC)cc2)cc1	i	1.3	10.5	1.2	3.8	7.5	-8.4	-0.7
CCCCN(CC)C(=O)Cn1cnc2sc(C)c(S(=O)(=O)N3CCC(C)CC3)c2c1=O	i	-4.1	-12.6	7.7	3.8	5.4	-3.4	3.5
CCCCn1c(N)c(N(CC(C)C)C(=O)c2ccc(Br)o2)c(=O)[nH]c1=O	i	7.6	-10.5	.	.	-30.8	-3.1	-2.2
Cc1ccc(C)c(NC(=O)CN(C)C(=O)c2ccc3ncsc3c2)c1	.	.	-20.6	.	.	-2.9	-0.6	-2.6
CCC(=O)NC1(C(F)(F)F)C(=O)Nc2c1c(=O)[nH]c(=O)n2CC(C)C (stereo not drawn)	i	-6.2	-16.9	7.5	4.8	-5.4	2.1	3.3

Some of the compounds tested. The share of hits here may be higher or lower than overall.
